Source: PubChem (several laboratories)
LANA-H2A inh: blocks KSHV LANA binding to histone H2A/H2B; Q9QR71; cell-free LANA-H2A/H2B peptide, fluorescence polarization; inhibition, % (concentration not given with the values); 320,000 compounds, 0.6% hits; AID 2629; in the data active means inhibition mostly above about 10%, no sharp cut-off; inactive means mostly below about 6.7%;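 further: stock transfer was 7.5 nL into about 10 µL; 0% = median of vehicle wells and 100% = median of positive control wells; one replicate is shown; the record names a cut of 25% in any replicate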
Calb FLC: affects C. albicans growth with fluconazole. C. albicans CaCi-2 (fluconazole-resistant clinical isolate) + fluconazole, Alamar Blue growth, 48 h. growth inhibition, % (no concentration beside the values). 300,000 compounds, 0.57% hits. AID 1979;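 active means most replicates above 75%; inconclusive means exactly half above 75%; inactive means most below 75%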;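 further: all wells also contain fluconazole at 8 µg/ml as a sub-toxic cotreatment; 0% = median of DMSO wells and 100% = median of geldanamycin control wells; wells of about 8 µL received 7.5 nL stock; the first replicate is given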
RanGTP-Imp inh: disruptors of Ran-importin-beta complex formation – biochemical, FRET, CFP-Ran, YFP-importin-beta, homogeneous, primary screen; cell-free CFP-Ran/YFP-importin-beta FRET ratio; inhibition, % (no concentration beside the values); 300,000 compounds, 1.1% hits; AID 2216;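 active means most replicates above 15%; inconclusive means exactly half above 15%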;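 further: 0% = DMSO wells and 100% = Ran loaded with GDP instead of GTP; wells of about 40 µL received 100 nL stock; the first replicate is given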
HNF4A DNA FP: change in binding of human HNF4 alpha to DNA | HNF4a-FITC DNA binding, fluorescence polarization, 1 h | activity change, % at 10 µM | 360,000 compounds, 0.3% hits | AID 1224865; in the data active means activity change above about 30%, passing the limit was not always enough;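 further: controls were the assay level and a saturating level of protein; the project sought stronger binding though the title names inhibitors; some compounds called inactive have numbers as strong as hits; positive values seem to mean higher polarization but the record does not say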
Target sequence (P41235 whole entry, looked up): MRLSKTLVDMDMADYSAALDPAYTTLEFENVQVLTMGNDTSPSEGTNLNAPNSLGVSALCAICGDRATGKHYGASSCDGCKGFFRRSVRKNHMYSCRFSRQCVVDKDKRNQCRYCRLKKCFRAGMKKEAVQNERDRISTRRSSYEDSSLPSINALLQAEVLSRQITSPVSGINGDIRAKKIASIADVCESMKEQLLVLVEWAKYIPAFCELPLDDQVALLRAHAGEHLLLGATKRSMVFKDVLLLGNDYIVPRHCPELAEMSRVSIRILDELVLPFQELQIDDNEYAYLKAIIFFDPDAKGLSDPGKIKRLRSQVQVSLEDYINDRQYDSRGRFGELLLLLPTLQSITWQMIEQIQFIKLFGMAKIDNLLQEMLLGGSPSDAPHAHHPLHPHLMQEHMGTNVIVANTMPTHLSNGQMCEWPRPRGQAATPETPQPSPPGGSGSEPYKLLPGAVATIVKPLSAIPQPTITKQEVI
Vif TR-FRET: inhibitors of Vif binding to APOBEC3G peptide, primary screen, biochemical, TR-FRET, GST-Vif 1-94, biotin-A3G peptide, dose response retest (AID 1117319) | inhibition, %, or IC50 in µM where a hit was titrated | TR-FRET GST-Vif / biotin-A3G peptide binding; higher % means a stronger effect; test concentration not given here; strong numbers were not always called active | 260,000 compounds, 0.57% hits;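 active means above the screen mean plus three standard deviations and confirmed in dose response; inconclusive means results disagree or hit not tested in dose response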;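 further: Vif residues 1-94 fused to GST binding biotinylated APOBEC3G peptide 110-148; 0% = full assay without inhibitor and 100% = GST in place of GST-Vif; retest series ran down from 100 µM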
Beta2AR agonist: activates human beta-2 adrenergic receptor causing internalization | Am2.2-beta2AR cells, FAP receptor internalization, flow cytometry; reference of the scale not given here | response, % (test concentration not listed) | 340,000 compounds, 0.43% hits | AID 504454;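 active means response above a set limit, near 3 SD of response in nonfluorescent compounds, cut at about 42% in these data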;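 further: stock transfer was 100 nL into about 11 µL; a reference agonist was the positive control; negative values mostly stem from fluorescent compounds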
Target sequence (P07550 whole entry, looked up): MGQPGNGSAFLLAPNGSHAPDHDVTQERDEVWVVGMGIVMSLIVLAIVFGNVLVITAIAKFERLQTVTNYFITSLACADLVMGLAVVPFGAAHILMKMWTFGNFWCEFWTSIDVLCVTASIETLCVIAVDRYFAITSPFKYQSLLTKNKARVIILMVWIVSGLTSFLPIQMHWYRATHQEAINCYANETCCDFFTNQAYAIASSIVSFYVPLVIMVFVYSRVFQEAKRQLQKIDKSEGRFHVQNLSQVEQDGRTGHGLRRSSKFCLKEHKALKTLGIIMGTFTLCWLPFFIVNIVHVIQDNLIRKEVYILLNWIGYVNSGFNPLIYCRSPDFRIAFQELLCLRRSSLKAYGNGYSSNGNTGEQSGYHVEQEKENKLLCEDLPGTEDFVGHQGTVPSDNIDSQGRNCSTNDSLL
ALR inh: human ALR oxidase inhibition via reduced H2O2; AID 485317; purified ALR, DTT oxidation, H2O2 HRP-luminol luminescence; inhibition, % (concentration not given with the values); 290,000 compounds, 3.8% hits;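 active means mean and each replicate at 75% or more; inconclusive means only one of the two met; inactive means neither met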;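 further: stock transfer was 7.5 nL into about 7.5 µL; 0% = neutral wells and 100% = wells with inactivated enzyme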
Target sequence (P55789 whole entry, looked up): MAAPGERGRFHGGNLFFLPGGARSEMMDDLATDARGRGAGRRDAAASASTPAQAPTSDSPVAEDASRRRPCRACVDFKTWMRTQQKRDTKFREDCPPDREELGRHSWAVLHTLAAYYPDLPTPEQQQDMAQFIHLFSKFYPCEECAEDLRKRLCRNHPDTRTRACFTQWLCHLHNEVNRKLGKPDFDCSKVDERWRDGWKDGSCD
* hit, by the source's call; ? = inconclusive; / = not tested or not shown; & = joins results of further samples. Not all compounds are listed; rates above refer to the full screens.

SMILES	LANA-H2A inh	Calb FLC	RanGTP-Imp inh	HNF4A DNA FP	Vif TR-FRET	Beta2AR agonist	ALR inh
O=C(CN1CCCC1=O)Nc1ccccc1	0.4	-1	-0.5	-0.6	-4%	-1	-1
CN1CC=C2C(C#N)=C(N)C(C#N)(C#N)C(c3ccncc3)C2C1 (configuration not stated)	1.9	1	45*	-76	14%	13	-18
O=c1[nH]c(=S)n(CCC2=CCCCC2)c(O)c1C=NCCCn1ccnc1	-0.2	?	?	9.7	?	10	25
CN1C2CCC1C(COC(=O)c1ccccc1)C(O)C2 (configuration not stated)	-0.5	-6	3.2	-0.8	-5%	-7	1
N#CC1=C(N)Oc2c(c(=O)sc3ccccc23)C1c1cccnc1 (configuration not stated)	-4.6	12	-0.3	0.7	-10%	-6	4
CCN(CC)C(=O)c1ccc(NC(=O)c2cc(-n3cnnc3)ccc2Cl)cc1	5.5	10	1.8	-0.9	3%	-8	-2
CCc1ccc(CN2CCCC(C(=O)c3sccc3C)C2)o1 (configuration not stated)	2.5	-10	1.8	-0.2	5%	6	-4
CC1CC(OC(=O)c2ccccc2)(c2ccccc2)C(C)CN1C (configuration not stated)	4.8	2	6.1	1.2	2%	0	-12
C[C@]12CC[C@H](O)CC1=CCC1C2CC[C@]2(C)C(=O)[C@H](Br)CC12 (some centres not stated)	-1.6	/	/	-1.4	3%	1	3
Cc1cc(OC(=O)c2cccs2)c2c3c(c(=O)oc2c1)CCCC3	-0.7	9	-1.8	1.6	-5%	29	49
COC(=O)C1=C(c2cc3ccccc3s2)C[C@@H]2CC[C@H]1N2C(=O)NCc1ccc(F)cc1	4.8	9	-0.4	-4.8	/	6	-3
CCCCCSc1cc(OC)c(CCNC)cc1OC	/	9	-0.3	-6.6	15%	20	/
Brc1ccc2[nH]cc(C=NN3CCCCCC3)c2c1	/	/	/	4.6	-6%	4	/
N[C@@H](Cc1c[nH]c2ccccc12)c1nnc(SCc2ccc(Cl)cc2)o1	-0.6	20	-0.1	2.3	0%	18	/
CC1OC(C[N+](C)(C)C)CC1O (configuration not stated)	14	/	/	3.8	/	-8	5
Cc1ccc2cccc(OC(=O)N(C)c3ccccc3)c2n1	-5.1	-5	-1.1	-2.4	2%	-5	-17
O=C1NC(=O)C(Cc2cccs2)C(=O)N1	-3.6	-12	4.6	2.1	30%	-5	-28
COc1ccc(NC(c2ccccc2F)P(=O)(Oc2ccccc2)Oc2ccccc2)cc1 (configuration not stated)	-0.9	-2	-2.7	0.3	2%	-2	-4
COc1cc(O)c(C(=O)O)c(-c2cc(O)c(O)cc2C)c1	-0.3	-7	1.0	-5.6	/	18	26
Brc1ccc(Oc2ccc(Br)cc2Br)c(Br)c1	-0.6	/	/	4.5	/	-6	-10
CCN1CCN(c2ccc([N+](=O)[O-])cc2C=C2C(=O)NC(=O)NC2=O)CC1	3.2	-1	1.1	0.8	/	5	-34
COc1cc2c(cc1OC)CC[N+](C)=C2	-1.8	1	4.8	1.9	-2%	57*	-23
Cc1oc(-c2cccs2)nc1CSCC(=O)N1CCC2(CC1)OCCO2	-2.2	-2	?	2.5	3%	-14	99*
O=NN1CCCCC1	-25	/	/	1.4	/	3	-3
CCC1(CC)C(=O)C=CNC1=O	1.9	/	/	-3.6	/	-5	-1
CN1CCN(c2ccc3nccnc3c2)CC1	2.8	-1	0.0	1.1	-7%	-3	-7
O=c1c2ccccc2nc(/C=C/c2ccccc2O)n1-c1ccccc1O	-2.3	11	-0.1	11	/	-201	38
CC1(C)CC(=O)c2cc(OCC(=O)N3CCN(Cc4ccccc4)CC3)ccc2O1	0.3	2	-1.5	-2.3	-5%	-2	-6
CCC(=NCC1CCCO1)c1c(O)[nH]c(=O)[nH]c1=O (configuration not stated)	-2.5	-6	-3.7	-5.3	0%	5	-15
Cc1cc(C)c2c(c1)NP(=S)(c1ccccc1)N2 (configuration not stated)	/	/	/	-1.6	0%	1	/
Cc1c(Oc2cc(NN3CCCCC3)c([N+](=O)[O-])cc2[N+](=O)[O-])cccc1[N+](=O)[O-]	0.5	-3	4.3	1.6	/	-2	2
COC(=O)C1=C(c2ccc(-c3ccccc3)c(F)c2)C[C@@H]2CC[C@H]1N2C(=O)NCc1ccc(F)cc1	-1.5	/	/	-0.2	/	1	0
CCOC(=O)C1=C(C)OC(N)=C(C(=O)OCC)[C@@]12C(=O)N(CC(N)=O)c1ccccc12	-4.0&-3.0	-9	-1.0	2.3	?	-4	-1
Cc1cccc(N2CCN(Cc3ccc4c(c3)OCO4)CC2)c1C	2.9	-27	-1.2	1.1	/	4	2
O=C(c1ccccc1F)N1C[C@H]2C[C@@H](C1)c1cccc(=O)n1C2	-5.5	0	-1.2	1.5	/	11	/
Cc1cc(OC(=O)N(C)C)nc(-c2ccc(C)c(Cl)c2)n1	-7.8	-10	?	-1.6	-8%	-7	-3
O=P(O)(O)Cc1ccccc1OP(=O)(c1ccccc1)c1ccccc1	-2.2	2	?	-3.0	3%	-4	2
C[N+]1(CC(COCc2ccccc2)OC(=O)Cc2ccccc2)CCOCC1 (configuration not stated)	5.5	-41	1.1	2.8	-3%	12	/
CCOC(=O)C(O)(c1ccc(NC(=O)NC)cc1)C(F)(F)F (configuration not stated)	-0.2	-5	-3.6	-1.7	2%	14	-6
CN(CCc1nnc(N)s1)[N+](=O)[O-]	2.9	-7	1.0	-1.6	-2%	1	-6
Cc1ccc(N2C(=O)NC(=O)C(CCc3ccccn3)(Cc3cccc(Cl)c3Cl)C2=O)cc1 (configuration not stated)	-2.0	1	1.1	0.6	16%	7	-4
CCOC(=O)C(O)(c1ccc(NC(=O)Oc2ccccc2)cc1)C(F)(F)F (configuration not stated)	0.6	-3	1.0	0.3	0%	9	4
NC(Cc1nc2ccccc2[nH]1)c1ccc(Cl)cc1 (configuration not stated)	1.7	0	-1.7	-8.0	-15%	-5	-4
COc1ccccc1OCC#CCN1CCCC1	2.3	-16	?	2.0	30%	10	/
CNC(=O)O/N=C(\N)Cc1csc2ccccc12	-4.8	3	1.3	0.1	-6%	5	-7

A stretch from further up:
SMILES	LANA-H2A inh	Calb FLC	RanGTP-Imp inh	HNF4A DNA FP	Vif TR-FRET	Beta2AR agonist	ALR inh
CN1CCN(c2ccc3nccnc3c2)CC1	2.8	-1	0.0	1.1	-7%	-3	-7
O=c1c2ccccc2nc(/C=C/c2ccccc2O)n1-c1ccccc1O	-2.3	11	-0.1	11	/	-201	38
CC1(C)CC(=O)c2cc(OCC(=O)N3CCN(Cc4ccccc4)CC3)ccc2O1	0.3	2	-1.5	-2.3	-5%	-2	-6

Later entries
SMILES	LANA-H2A inh	Calb FLC	RanGTP-Imp inh	HNF4A DNA FP	Vif TR-FRET	Beta2AR agonist	ALR inh
Cc1ccc2c(c1)CCCN2N=O	2.0	-20	-0.7	0.2	/	-3	-6
Clc1ccc2c(N3CCNCC3)ccnc2c1	5.0	-12	2.1	0.2	20%	-2	-7
COc1cc(CNCCc2c[nH]c3ccccc23)cc(OC)c1	2.2	-11	-2.0	-0.3	-2%	8	-12
Cc1ccc(O)c(C(=O)c2cc(C(=O)NCCC(C)C)c(=O)n(CCC(C)C)c2)c1	2.2	1	5.3	-1.3	-1%	-4	-1
O=C(CN1CC=C(c2ccccc2)CC1)Nc1cc(Cl)ccc1Cl	-1.6	-13	0.8	2.5	5%	-7	7
C[C@]12CCC(=O)C=C1CCC1C2CC[C@@]2(C)C1CC[C@@]2(O)CC#N (some centres not stated)	-23	/	/	2.7	-3%	0	/
O=C(Nc1ccc(F)c([N+](=O)[O-])c1)N1C[C@H]2C[C@@H](C1)c1cccc(=O)n1C2	2.8	4	-1.6	-0.1	/	3	0
C/C(=N\Nc1ccccc1)c1c(O)n(Cc2ccccc2)c(=O)[nH]c1=O	-2.9	19	4.6	0.0	?	-18	98*
O=c1[nH]c(=O)n(-c2ccc(F)cc2)c(O)c1C=NCCN1CCCCC1	1.4	-3	4.5	0.4	18%	3	29
O=c1cc(CN2CCNCC2)nc2sccn12	1.5	3	-3.4	-3.5	-6%	-3	-9
Cc1cc(OCC(=O)N[C@H](C(=O)O)c2ccccc2)c2c3c(c(=O)oc2c1)CCC3	-1.8	1	6.3	-0.2	/	2	-11
CCCCc1nc(N2CCNCC2)c(C#N)c2c1CSC(C)(C)C2	3.2	?	3.3	-4.1	-2%	8	-21
C[C@]12CC[C@H](OC(=O)CCC(=O)O)CC1=CCC1C2CC[C@@]2(C)C1CC[C@@H]2OC(=O)CCC(=O)O (some centres not stated)	-0.6	/	/	1.3	-4%	7	1
CCCOC(=O)c1c(N)n(Cc2cccs2)c2nc3ccccc3nc12	-0.3	-2	?	-0.5	-12%	-5	/
CC(C)(C)C(=O)OC[N+](C)(C)CCOC(=O)C(O)(c1ccccc1)C1CCCC1 (configuration not stated)	-1.6	-13	0.3	-2.6	11%	0	1
CC(=O)c1ccc(OC(C)C)c(Cc2c(O)[nH]c(=S)[nH]c2=O)c1	0.5	6	-3.6	1.1	-6%	-5	0
Cc1ccc2c(c1)C1CN(C)CCC1N2C(=O)c1cccnc1Cl (configuration not stated)	-0.8	2	?	1.0	-4%	0	-6
CCCCn1c(O)c(C(C)=Nc2ccc(C(=O)O)cc2)c(=O)[nH]c1=O	1.1	3	-3.5	-0.9	-3%	-2	7
CCCNC(=O)N1[C@H]2CC[C@@H]1C(C(=O)OC)=C(c1c(C)noc1C)C2	-2.7	/	/	-2.2	/	3	1
C=CCn1c(O)c(C(C)=NC2CCN(Cc3ccccc3)CC2)c(=O)[nH]c1=O	-2.5	-7	8.3	0.7	-14%	0	-9
O=C1NS(=O)c2cc([N+](=O)[O-])cc([N+](=O)[O-])c21 (configuration not stated)	-0.2	9	0.2	1.7	?	7	-52
CCCNC(=O)c1c(N)n(CC2CCCO2)c2nc3ccccc3nc12 (configuration not stated)	3.4	-2	-3.1	-1.9	-1%	-1	25
Cc1ccc(C)c(NC(=S)NCCc2cnc[nH]2)c1	-0.8	0	-0.2	3.9	-2%	1	-5
Nc1c(C(=O)NCc2ccco2)c2nc3ccccc3nc2n1Cc1ccccc1	5.0	55	55*	6.8	14%	8	2
COCc1cc(OC(=O)N(C)C)nc(-c2ccccc2)n1	-2.6	-3	2.0	-1.3	/	12	-7
Fc1ccc(C(OCCN2CCN(CCCc3ccccc3)CC2)c2ccc(F)cc2)cc1	-1.9	/	-1.3	-4.8	/	19	/
O=C(c1ccc2nc(-c3ccco3)c(-c3ccco3)nc2c1)N1CCC2(CC1)OCCO2	4.8	/	/	-11	0.35µM*	-7	-10
O=C(c1cc(Br)ccc1Cl)N1CCC2(CC1)OCCO2	2.9	-5	7.7	-0.4	0%	-2	-7
COC(=O)C1=C(c2ccc(F)cc2OCc2ccccc2)C[C@@H]2CC[C@H]1N2C(=O)NCc1ccccc1C(F)(F)F	4.1	/	/	-3.3	/	16	1
CNC(=O)O/N=C(\N)Cc1csc2ccc(Cl)cc12	-0.4	-16	-1.0	4.7	-6%	5	-6
CC1=C2[C@@H]3OC(=O)[C@H](C)C3CC[C@@]2(C)C=CC1=O (some centres not stated)	3.3	-7	4.2	-1.4	-19%	1	1
C[N+]12CN3CN(CN(C3)C1)C2	-4.0	3	1.5	2.3	4%	5	-6
O=[N+]([O-])c1cccc(NP(=O)(N2CC2)N2CC2)c1	/	/	/	1.6	-2%	5	/
CN(C=O)CP(=O)(O)CN(C)C=O	6.3	-5	6.3	0.4	-5%	12	-3
CCC(Oc1cc(Cl)ccc1Cl)C(=O)N1CCC2(CC1)OCCO2 (configuration not stated)	-1.2	12	0.2	-2.6	/	7	-2
